High-throughput results deposited in PubChem by Johns Hopkins Ion Channel Center.
KCNQ2 enhance: potentiators of rat KCNQ2 potassium channel; O88943; CHO-K1 KCNQ2, FluxOR thallium flux fluorescence; stronger effect = higher value; B-score at 10 µM; 310,000 compounds, 0.54% hits; AID 2239;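 active means fluorescence ratio B-score at least 3 SD of library B-scores, with initial fluorescence B-score within 3 SD, cut at about 5.3 in these data; same plate scores as AID 2156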;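 further: B-score of peak minus minimum over baseline fluorescence ratio after K+ and Tl+ stimulus; positive B-score means potentiation of KCNQ2 with more thallium influx and brighter signal; only the inactives scoring about 0 or higher are listed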
Target sequence (O88943 whole entry, looked up): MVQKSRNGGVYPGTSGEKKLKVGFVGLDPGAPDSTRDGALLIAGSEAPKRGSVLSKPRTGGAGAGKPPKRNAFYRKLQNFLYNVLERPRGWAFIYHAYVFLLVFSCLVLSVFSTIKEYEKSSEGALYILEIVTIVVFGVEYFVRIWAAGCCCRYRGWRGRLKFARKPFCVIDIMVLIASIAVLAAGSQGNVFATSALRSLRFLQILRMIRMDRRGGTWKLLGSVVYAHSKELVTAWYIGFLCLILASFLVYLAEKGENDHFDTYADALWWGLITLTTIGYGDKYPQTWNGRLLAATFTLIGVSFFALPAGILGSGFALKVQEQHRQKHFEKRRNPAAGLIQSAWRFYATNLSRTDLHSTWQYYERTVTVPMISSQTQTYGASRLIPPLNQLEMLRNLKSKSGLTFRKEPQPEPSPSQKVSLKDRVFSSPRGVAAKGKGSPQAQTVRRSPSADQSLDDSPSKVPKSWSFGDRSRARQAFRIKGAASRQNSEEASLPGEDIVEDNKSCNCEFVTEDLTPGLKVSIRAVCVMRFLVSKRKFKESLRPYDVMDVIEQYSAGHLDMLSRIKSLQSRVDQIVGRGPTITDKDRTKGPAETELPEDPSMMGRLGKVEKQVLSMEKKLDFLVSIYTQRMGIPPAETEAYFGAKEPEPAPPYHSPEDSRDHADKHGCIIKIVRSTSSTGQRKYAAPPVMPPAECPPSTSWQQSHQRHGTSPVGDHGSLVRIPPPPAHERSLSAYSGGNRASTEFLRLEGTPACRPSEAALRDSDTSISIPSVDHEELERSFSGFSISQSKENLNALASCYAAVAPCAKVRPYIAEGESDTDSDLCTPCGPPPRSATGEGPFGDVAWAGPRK
KCNQ2 enhance baseline: also measured in KCNQ2 enhance; calls as there; B-score; compound at 10 µM; measured here: initial fluorescence intensity artifact check;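 brightness before thallium and not channel activity; 0 = typical well and far values either way flag optical interference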
Starred values were filed as active, the others as inactive; . = no result given. An excerpt, so the mix of outcomes need not match the whole.

compound	KCNQ2 enhance	KCNQ2 enhance baseline
CCCCCn1nc(C)c(/C=N/NC(=O)c2ccoc2C)c1C	0.31	0.9
COc1ccc(OC)c(NC(=O)C(=O)NNC(=O)COc2ccc(Br)cc2C)c1	17*	0.34*
O=C(Nc1ccccc1C(=O)NCc1ccc(Cl)cc1)c1ccco1	0.18	-0.41
CNC(=O)c1ncnnc1N(C)C(=O)NCc1ccccc1	9.8*	-1.3*
COc1ccc(OC)c(NC(=O)CS(=O)(=O)c2cn(CC(=O)N3CCOCC3)c3ccccc23)c1	0.33	0.26
CCc1ccccc1NC(=O)Nc1ccc2c(c1)OCO2	1.3	0.04
COc1ccc(-n2c(Cc3cc(=O)[nH]c(=O)[nH]3)nnc2SCC(=O)NC2CCCC2)cc1	0.16	0.15
C/C(Cc1ccccc1)=N\NC(=O)CNC(=O)Cc1ccc(Cl)cc1	1.2	0.83
O=C1NC2(CCCCC2)C(=O)N1c1cccc(Cl)c1	0.91	-0.74
COc1ccc(CNC(=O)CN2c3ccccc3S(=O)(=O)c3ccccc32)cc1	1.7	-0.13
O=C(Nc1cccc(Cl)c1)c1cc(N=Nc2ccc([N+](=O)[O-])cc2Cl)ccc1O	4.5	1
Cc1cc(C)n2nc(SCC(=O)c3cc(C)n(CC4CCCO4)c3C)nc2n1 (stereo not given)	0.37	-0.79

Remaining list, next part
compound	KCNQ2 enhance	KCNQ2 enhance baseline
CCN(C(=O)CCNC(=O)Cn1cnc2ccccc2c1=O)c1ccccc1F	0.02	1.7
CC(C)(C)OC(=O)NCCCC[C@H](NC(=O)c1[nH]cnc1C(=O)N[C@@H](Cc1ccccc1)C(=O)OC(C)(C)C)C(=O)OC(C)(C)C	0.29	-0.67
CCOC(=O)c1sc(=S)n(CC)c1NC(=O)CC	0.75	-0.83
COc1ccc(N(CC(=O)NCc2ccc(F)cc2)S(=O)(=O)c2c(C)n[nH]c2C)cc1	0.4	-1
O=C(CSCc1ccc(Cl)cc1)N/N=C/c1c(Cl)cccc1Cl	0.11	0.27
CCOC(=O)c1csc(NC(=O)c2ccc3c(c2)OCCO3)n1	0.8	0.05
O=C1CS/C(=C\[N+](=O)[O-])N1c1ccccc1	1.7	0.56
O=C(Nc1ccc(S(=O)(=O)N2CCCC2)cc1)c1cc(F)c(F)cc1Cl	1.2	-1.2
CCOC(=O)N1CCN(S(=O)(=O)c2ccc3c(c2)CC(C)N3C(=O)C2CC2)CC1 (stereo not given)	0.53	0.02
O=C1CN(C(=O)COC(=O)c2cccnc2Cl)c2ccccc2N1	0.47	-0.47
Cc1cc(C)nc(SCC(=O)NC2CCCCC2C)n1 (stereo not given)	1.9	0.4
COc1cccc(C(=O)NC(C)C(c2cccs2)N2CCOCC2)c1 (stereo not given)	0.6	1.3

Continued.
compound	KCNQ2 enhance	KCNQ2 enhance baseline
COc1ccccc1NC(=O)N1CCN(c2ccccn2)CC1	0.32	1.2
CC(=O)c1sc(NC(=O)CCN2C(=O)c3ccccc3C2=O)nc1C	0.31	0.25
CN(c1ccc(C(=O)N2CCCCC2)cc1)S(=O)(=O)c1cccs1	1.3	1.3
COc1cc(NC(=O)c2cccs2)ccc1NC(=O)c1ccccc1Cl	1.9	-0.99
CC(=O)c1cccc(NC(=O)c2ccc([N+](=O)[O-])o2)c1	1.1	-1.5
Cc1cccc(C)c1NC1=NC(=S)N(c2ccc(C(=O)O)cc2)C12CCCCC2	1.1	0.25
CCOC(=O)CNC(=O)Cn1cnc2c(nnn2-c2ccc(F)cc2)c1=O	0.11	0.01
COc1cccc(-c2noc(CCC(=O)NC3CCCCC3)n2)c1	0.79	-1.4
CCCCN(C(=O)C1CCCC1)C1CCS(=O)(=O)C1 (stereo not given)	0.98	1.1
CCCc1ccc(OCc2ccc(C(=O)NCc3cccnc3)o2)c(OC)c1	1.1	0.95
CN(CC(=O)NCc1ccccn1)S(=O)(=O)c1cc(Cl)ccc1Cl	0.83	0.14
COCC(C)n1c(C)cc(C(=O)CN2C(=O)NC3(CCCCC3C)C2=O)c1C (stereo not given)	1.1	-0.6

Later entries:
compound	KCNQ2 enhance	KCNQ2 enhance baseline
COc1ccccc1NC(=O)C1CCN(C(=O)C2CC(=O)N(c3ccc(C)cc3)C2)CC1 (stereo not given)	1.2	2.3
Cc1sc2cc(-c3cccc([N+](=O)[O-])c3)c(-c3cccc([N+](=O)[O-])c3)c[n+]2c1C	0.47	-0.4
CN(C)c1ccc(C(=O)NCc2ccc3c(c2)OCO3)cc1	1.1	0.32
CCCCOc1cc(C(=O)NCCN(CC)CC)c2ccccc2n1	0.89	.
COC(=O)c1ccccc1NC(=O)Nc1ccc(C(=O)N2CCCC2)cc1	1.2	-1.3
CCc1nc(SCC(=O)c2ccccc2)c2ccccc2n1	1	-1.3
CCN(CC)CC(C)CNC(=O)C1(O)c2ccccc2NC(=O)N1c1ccc(Cl)c(Cl)c1 (stereo not given)	1.2	-1.1
OCCN1CCN(c2cc(C(F)(F)F)nc3c(F)cccc23)CC1	0.05	3.3
Cc1ccc(OCC(=O)N(Cc2ccccc2)C2CCS(=O)(=O)C2)c([N+](=O)[O-])n1 (stereo not given)	1.3	0.41
CCOC(=O)CSc1nc(-c2ccncc2)ccc1C#N	1.5	-1.8
CC(=O)c1ccc(OCc2cc(C(=O)N(C)Cc3ccon3)no2)cc1	0.34	2.1
O=C(NNC(=O)C1CCCN(c2ncccn2)C1)c1ccncc1 (stereo not given)	1.6	-0.01

Later entries
compound	KCNQ2 enhance	KCNQ2 enhance baseline
Cc1cc(C)c(-c2csc(NC(=O)C3=COCCO3)n2)cc1C	0.93	-1.1
Cc1ccc(NC(=O)COC(=O)c2cccnc2)c(C)c1	0.05	1.1
COc1ccc(-c2cn(-c3ccccc3)c(=S)[nH]2)cc1OC	0.39	-1.4
CC(C)C1NCCc2c1sc1ccccc21 (stereo not given)	0.95	-3
Cc1nc2ccccc2n1/N=C/c1ccc([N+](=O)[O-])o1	0.95	0.12
COc1ccc(CCNC(=O)CN(c2ccc(OC)c(OC)c2)S(C)(=O)=O)cc1OC	0.1	1.1
COc1ccccc1C(=O)Nc1ccc(-c2nnn(CC(=O)N3CCN(C(=O)c4ccco4)CC3)n2)cc1	1.2	-0.31
Cc1cccc(Nc2nnc(SC3CCOC3=O)s2)c1C (stereo not given)	1	-0.24
Cc1ccc(OCc2nc(-c3ccccn3)n[nH]2)cc1	5	0.71
Cc1ccc(-c2cccc(C3CC=CC4C3C(=O)N(Cc3ccccc3)C4c3ccc(C(F)(F)F)cc3)c2)cc1 (stereo not given)	2.6	-1.7
COc1ccc(CCNC(=O)CSc2ccc(-c3cccs3)nn2)cc1OC	1.5	-1.2
CS(=O)(=O)c1ccc(Oc2ccc(-c3nnco3)cc2)c([N+](=O)[O-])c1	0.55	0

(list continues)
compound	KCNQ2 enhance	KCNQ2 enhance baseline
CCCS(=O)(=O)c1c(S(=O)(=O)CCC)c2cc(-c3ccncc3)ccn2c1C(=O)OC	0.12	-0.01
O=c1[nH]ncc2c3ccccc3n(Cc3ccc(F)cc3)c12	0.74	0.09
C=CCOc1ccc(CNn2c(C)n[nH]c2=S)cc1OC	0.74	-1.6
O=C(NCC(=O)N1CCCCCCC1)c1ccccc1Br	0.17	-0.08
CC1(C)NC(=O)N(CC(O)Cn2c3ccccc3c3ccccc32)C1=O (stereo not given)	0.82	2.2
Cn1c(SCC(=O)c2c(N)n(C)c(=O)n(C)c2=O)nnc1-c1ccccc1F	0.52	0.7
COc1cc(OC)nc(Oc2cccc(Cl)c2C)n1	0.24	-0.86
CC12CCC(C(=O)NC3CCCCC3)([C@H](Br)C1=O)C2(C)C (stereo not given in full)	1	-0.23
CS(=O)(=O)N1CCc2cc(C(=O)Nc3ccccc3Br)ccc21	0.95	-0.78
COc1ccc(/C=N/NC(=O)c2[nH]c(C)c(C(=O)N/N=C/c3ccc(OC)cc3)c2C)cc1	0.33	-0.13
CCOc1ccc(CN2C(=O)c3ccccc3C2C(=O)NCC2CCCO2)cc1 (stereo not given)	1.2	-0.7
COc1ccccc1OCC(=O)Nc1ccc(S(=O)(=O)Nc2cc(C)nc(C)n2)cc1	1.7	-0.35

Remaining list, next part:
compound	KCNQ2 enhance	KCNQ2 enhance baseline
COc1ccc(-c2cc(C)nc3c(-c4ccccc4)cnn23)cc1	0.06	-0.09
COc1cc(C(=O)NC(C)CCn2cccn2)ccc1OC1CCN(C(C)=O)CC1 (stereo not given)	0.64	-0.01
CC(C)C(=O)Nc1nnc(-c2ccccc2)o1	0.37	0.03
CS(=O)(=O)N(CC(=O)N1CCc2ccccc2C1)c1ccc(Br)cc1	0.22	-0.97
O=C(Nc1cccnc1Cl)c1cc(-c2ccc(F)cc2)on1	0.48	-2
Cc1ccc(CNC(=O)c2cncc(Br)c2)cc1	0.5	-0.48
Cc1ccc2nc(C3CCCN(C(=S)Nc4ccccc4C)C3)[nH]c2c1 (stereo not given)	1.8	-0.07
Cc1noc(C)c1C(=O)Nc1ccc(S(=O)(=O)N2CCCCC2)cc1	0.03	-1.9
CC(C)(C)NC(=O)COC(=O)c1ccc2c(c1)C(=O)N(Cc1ccco1)C2=O	1.1	-0.2
OCCNc1nc(N2CCCC2)nc(N2CCCC2)n1	0.85	2.3
CC(C)=CCN1CCN(Cc2ccc3nsnc3c2)CC1CCO (stereo not given)	1.6	-0.38
CCOc1ccc(NC(=O)CN(C)C(=O)c2ccc(N3CCCCCC3)c([N+](=O)[O-])c2)cc1OCC	0.58	-0.99

Additional entries follow.
compound	KCNQ2 enhance	KCNQ2 enhance baseline
Cc1nc2ccc(NC(=O)c3cc(S(=O)(=O)N(C)c4ccccc4)ccc3Cl)cc2s1	0.44	-1.1
CC(=O)N(C)c1ccc(C(O)(C(F)(F)F)C(F)(F)F)cc1	1.6	0.97
CCn1c(SCC(=O)N2CCOCC2)nnc1-c1ccco1	0.4	0.36
CCCOc1ccc(CNC(=O)C2CCN(C(=O)N3CCOc4ccccc43)CC2)cc1	0.37	0.59
CCC(=O)N1CCN(c2nc(-c3ccc(Cl)cc3)cs2)CC1	0.84	0.18
COc1cccc(NC2=NCC(=O)N2Cc2cccs2)c1	0.6	-1.9
C=CCn1c(-c2cccc(OC)c2)nc2nc3ccccc3nc21	0.09	0.85
CC(C)NC(=O)CC1C(=O)N(Cc2ccccc2)C(C)c2nc3ccccc3n21 (stereo not given)	0.29	-0.05
Cc1ccc(NC(=O)CCC(=O)NNC(=S)Nc2ccc(F)cc2F)cc1C	1.1	-1.7
CCn1c(SCC(=O)NC2CCCCC2)nc2c(c1=O)SC(C)C2 (stereo not given)	1.9	0.48
CCn1nc(NC(=O)c2ccccn2)c2cc3cccc(C)c3nc21	0.29	-0.79
Cc1ccc(CNC(=O)CSc2nc(C)cc(C)c2C#N)cc1	0.78	1.6

The results go on:
compound	KCNQ2 enhance	KCNQ2 enhance baseline
N#Cc1c(SCC(=O)N2CCCCC2)nsc1SCC(=O)N1CCCCC1	1.6	1.3
O=C(O)CNC(=O)/C(=C/c1cccc([N+](=O)[O-])c1)NC(=O)c1ccco1	0.28	0.04
COC(=O)c1ccc(C(=O)OC)c(NC(=O)CSc2nnc(-c3ccccc3Cl)o2)c1	0.38	0.43
C/C(=N\NC(=O)c1nnn(-c2nonc2N)c1CSc1ccccc1)c1ccco1	0.72	1.2
O=C(OCCCN1CCCC1)C1(c2ccccc2)CCCC1	0.39	-0.12
COc1cc(C)c(C(C)C)cc1S(=O)(=O)NCCCn1ccnc1	1.3	-1.8
CCc1ccccc1N(CC(=O)N1CCCCCC1)S(C)(=O)=O	0.85	1.5
O=C(c1cc(Cl)ccc1F)N1CCCC(Nc2ccc3c(c2)OCCO3)C1 (stereo not given)	1.3	-0.93
COC(=O)c1sccc1NC(=O)Nc1cc(OC)ccc1OC	0.78	-0.13
O=C(NCc1ccc2c(c1)OCO2)Nc1ccc(F)cc1	2.6	-1.4
N#CCCN(C(=O)Nc1ccc(Cl)c(Cl)c1)c1ccccc1	0.01	1.2
Cc1ccc2[nH]c(C(=O)O)c(NC(=O)[C@@H]3C[C@@H]3c3ccccc3)c2c1	1.4	-0.34
Cc1cc(C)n(-c2ccc(C(=O)Nc3cccnc3)cc2)n1	0.43	0.19
C=CCn1c(-c2ccccc2[N+](=O)[O-])n[nH]c1=S	0.12	1.4
COCCNC(=O)CN(C(=O)CCC(=O)Nc1ccccn1)c1ccc(C)c(C)c1	1.5	-0.7

One compound at a time, from the list above:
Entry for `Cc1cc(C)n(-c2ccc(C(=O)Nc3cccnc3)cc2)n1` → KCNQ2 enhance: 0.43; KCNQ2 enhance baseline: 0.19
Entry for `N#Cc1c(SCC(=O)N2CCCCC2)nsc1SCC(=O)N1CCCCC1` → KCNQ2 enhance: 1.6; KCNQ2 enhance baseline: 1.3
Entry for `C/C(=N\NC(=O)c1nnn(-c2nonc2N)c1CSc1ccccc1)c1ccco1` → KCNQ2 enhance: 0.72; KCNQ2 enhance baseline: 1.2
